WNV NS2B-NS3 inh: WNV NS2B-NS3 proteinase inhibition | WNV NS2B-NS3 protease, fluorogenic substrate Ex360/Em465; hits give low values | hit rate 0.18% among 65,000 | P06935 | z-score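 (tested at a level between 10 and 100 µM)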;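 active = z-score at -3 or under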;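 also: score is relative to mean and spread of the compound wells of a plate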
Target sequence (P06935 1371-1501 limits assumed): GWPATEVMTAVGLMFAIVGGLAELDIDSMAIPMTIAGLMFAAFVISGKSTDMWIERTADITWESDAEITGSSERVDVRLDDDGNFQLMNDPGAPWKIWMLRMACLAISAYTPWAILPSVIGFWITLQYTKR
Target sequence (P06935 1502-1679 limits assumed): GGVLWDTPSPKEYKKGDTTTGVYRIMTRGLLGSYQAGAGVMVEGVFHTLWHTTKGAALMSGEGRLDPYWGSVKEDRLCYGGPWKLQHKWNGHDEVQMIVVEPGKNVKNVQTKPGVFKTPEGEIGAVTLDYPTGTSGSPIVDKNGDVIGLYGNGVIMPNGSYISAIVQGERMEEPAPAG
MT1-MMP reporter: MT1-MMP gene expression reporter suppression – cell-based, luciferase reporter, luminescence (AID 618). MT1-MMP promoter luciferase reporter cells, luminescence. hit rate 0.62% among 87,000. calls from a first round at 10 µM; hits with a dose series show EC50 in µM;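 active = over half of the reporter light lost at 10 µM or EC50 under 50 µM; inactive = the rest and hits that failed the dose series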;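 also: actives suppress MT1-MMP promoter-driven transcription so potencies describe inhibitors; HT1080 fibrosarcoma cells; overnight exposure; toxic or luciferase-blocking compounds were not removed from the actives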
Hsc70 ATP site: Hsc70 inhibitors, probe displacement, primary screen, biochemical, fluorescence polarization (AID 568); 83,000 tested, under 10 active; one-dose displacement, % at 20 µM; IC50 in µM for titrated hits; Hsc70 fluorescence polarization, probe displacement; higher % means a stronger effect; strong numbers were not always called active;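 active = displacement above 50% without optical interference and an IC50 on retest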;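 also: ATPase domain with a fluorescein-tagged ATP probe; 0% = vehicle and 100% = excess ADP; read after one hour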
Active calls of the source: *; i = inactive; x = no result given. These rows are one share of the data; the hit share may differ from the screen's.

SMILES,WNV NS2B-NS3 inh,MT1-MMP reporter,Hsc70 ATP site
CN(CC(=O)Nc1ccncc1)S(=O)(=O)c1ccccc1,0.62,i,-1.3%
COc1ccccc1Oc1coc2cc(O)ccc2c1=O,1,i,-2.6%
COc1ccc(C/C(N)=N/n2cnnc2)cc1,-0.74,i,-2.9%
CC1(C)CC(NC(=O)c2ccc3c(c2)OCO3)CC(C)(C)N1,x,i,-2.7%
CCOc1ccc(-c2[nH]nc3c2C(c2ccc(O)cc2)C(C#N)=C(N)O3)cc1 (stereo unspecified),-1.5,i,-8.2%
Cc1ccccc1C(=O)NC1CCN(Cc2nnnn2CCc2ccccc2)CC1,-0.19,i,-0.7%
CCOC(=O)/C(C(N)=NC)=C(\O)c1ccccc1,0.5,i,5.1%
COc1ccc(OC)c(-c2cc(C(=O)Nc3c(C)nn(Cc4ccccc4)c3C)no2)c1,0.75,i,-2.4%
CCCn1nc(-c2ccccc2)c2nc3ccccc3nc21,0.41,i,85%
Cc1nnc2ccc(N3CCCC3)nn12,0.48,i,0.5%
O=C(Nc1ccc2c(c1)OCO2)C(c1ccccc1)N1CCCCC1 (stereo unspecified),-1.3,i,4.9%
O=C1Nc2ccccc2N=C(c2ccccc2)C1N1CCOCC1 (stereo unspecified),-0.5,i,5.0%
CCc1ccc2[nH]c(=O)c(CN(CCN(CC)CC)C(=O)NC3CCCCC3)cc2c1,-0.93,i,-0.3%
Cc1cccc(C)c1NC(=O)C(c1ccccc1)N1CCOCC1 (stereo unspecified),x,i,-2.2%
CCC(=Nc1ccc(Cc2ccncc2)cc1)c1c(O)n(C)c(=O)n(C)c1=O,0.69,i,0.2%
COc1ccc(C(=O)Nc2ccc3c(c2)nc2n3CCSC2)cc1,0.03,i,5.1%
COc1ccccc1OCc1ccc(C(=O)n2nc(C)c(Cl)c2C)o1,1.1,i,-0.6%
CCCOc1ccc(C2c3c(oc4ccccc4c3=O)C(=O)N2CCCN2CCOCC2)cc1 (stereo unspecified),-0.04,i,-0.1%
CCOc1cccc(C(=O)Nc2nccs2)c1,x,i,-0.8%
O=C(Nc1ccc2c(c1)OCO2)C1CCN(C(=O)c2cccs2)CC1,0.01,i,-2.7%

SMILES,WNV NS2B-NS3 inh,MT1-MMP reporter,Hsc70 ATP site
CC(=O)N1CCc2cc(S(=O)(=O)NCCC(=O)N3CCc4ccccc4C3)ccc21,-0.31,i,2.7%
O=C1OCC/C1=C\c1ccccc1O,x,i,4.1%
CCC(=O)c1ccc(OCC(O)CN(C)C2CCCCC2)cc1 (stereo unspecified),-0.23,i,3.9%
O=C(CCN1CCN(c2ccccc2)CC1)Nc1ccc(OCc2ccccc2)cc1,x,i,-2.2%
CCOC(=O)CCC(=O)NCc1ccc2c(c1)cc(C)n2C,-0.13,i,6.1%
O=C(CCN1CCCCCC1)Nc1cccc(Cl)c1,-0.65,i,-1.0%
CCOC(=O)N1CCC(N2Cc3cccc(C(=O)NC(C)c4ccc5c(c4)OCCO5)c3C2=O)CC1 (stereo unspecified),-0.0047,i,-5.8%
CC1Cc2ccccc2N1S(=O)(=O)c1cccs1 (stereo unspecified),-0.52,i,-172%
O=C(c1ccco1)N1CCN(C(=O)c2ccccc2OC(=O)C23CC4CC(CC(C4)C2)C3)CC1,-0.96,i,2.8%
CC(CN1CCCCC1)OC(=O)c1ccc(Cl)cc1Cl (stereo unspecified),0.87,i,1.2%
COc1ccc(CN2CCN(c3cccc(C)c3C)CC2)cc1OC,0.37,i,1.7%
CC(C)c1ccc(S(=O)(=O)N2CCN(CC(=O)Nc3ccc4c(c3)OCO4)CC2)cc1,-0.78,i,9.7%
COCc1cc(C)nc(SCC(=O)Nc2cccc(C)c2C)c1C#N,0.32,i,-1.2%
CC1CCCC(N2CCN(C(=O)c3cccc(F)c3)CC2)C1 (stereo unspecified),x,i,-3.8%
O=C(c1c(F)c(F)c(F)c(F)c1F)N1CCc2ccccc21,-0.3,i,1.9%
CC1CCCCN1C(=O)C1CC(c2ccc(F)cc2)=NO1 (stereo unspecified),0.08,i,-3.7%
CCS(=O)(=O)N1CCC(c2nc(-c3ccc(C(F)(F)F)cc3)no2)CC1,0.29,i,-1.5%
C=CCn1c(CSc2nc3ccccc3s2)nnc1SCC(=O)NCc1cccnc1,x,i,-5.3%
Cn1cnnc1SCc1ccc(-c2ccc(Br)cc2)o1,0.27,i,-11%
Cc1cccc(C)c1NC(=O)c1ccc(-n2cnnn2)cc1,-0.47,i,-0.8%

SMILES,WNV NS2B-NS3 inh,MT1-MMP reporter,Hsc70 ATP site
COc1cc(SC)ccc1C(=O)NCC1CCCO1 (stereo unspecified),0.46,i,-3.6%
Cc1ccc2c(c1)nnn2C1CCN(CC(=O)Nc2ccc3c(c2)OCCO3)CC1,-0.02,i,0.6%
CCN1C(=O)/C(=C2\SC(N3CCCCC3)=NC2=O)c2ccccc21,1.3,i,-4.1%
Cc1cc(C)nc(N2C(=O)CC(C(C)c3ccccc3)C2=O)n1 (stereo unspecified),-0.4,i,6.5%
CCOC(=O)CNC(=O)C(Cc1ccccc1)NS(=O)(=O)c1cccs1 (stereo unspecified),-3.4*,i,2.0%
C/C(CC1(O)C(=O)Nc2ccccc21)=N\O (stereo unspecified),x,i,0.1%
COc1cc(NS(=O)(=O)c2ccc(C)c(C)c2)c(OC)cc1Cl,x,i,-2.3%
CC1(C)Cc2c(C#N)c(N3CCN(C(=O)c4ccccc4)CC3)nc(Cc3ccccc3)c2CO1,x,i,-2.1%
CCN(CC)CC(=O)Nc1ccc(-c2nc3cc(NC(=O)CN(CC)CC)ccc3o2)cc1,-0.43,i,-1.7%
O=C(CN1CCN(C(=O)c2ccco2)CC1)Nc1cc(Cl)ccc1Cl,x,i,4.1%
Cc1ccc(S(=O)(=O)N(C)Cc2nc(-c3ccc(Br)cc3)no2)cc1,-0.93,i,4.5%
CCNc1nc(NCc2ccccc2)nc(Oc2ccc(=O)[nH]n2)n1,1.1,i,-1.0%
CC(=O)NC1C(=O)SC1(C)C (stereo unspecified),-1.7,i,-2.0%
O=C1c2[nH]nc(-c3ccccc3O)c2C(c2ccccc2F)N1Cc1ccco1 (stereo unspecified),0.29,i,-0.7%
CCOC(=O)N1CCC(NC(=O)C2CCCN(S(=O)(=O)c3cccc4nsnc34)C2)CC1 (stereo unspecified),-1.7,i,-1.6%
Cc1cccc(C(=O)n2c(=S)nc3ccccn32)c1,x,i,0.7%
c1ccc2c(c1)C(=Nn1cnnc1)c1ccccc1-2,-0.36,i,2.4%
c1ccc(C2CC(c3ccccc3)n3ncnc3N2)cc1 (stereo unspecified),-0.44,i,-3.9%
CN(C)CCOC(=O)CCc1ccccc1,-2.1,i,-7.7%
O=c1cc(CSc2ccc(Cl)cc2)nc(N2CCCCC2)[nH]1,-0.45,i,-2.2%

Single records, from the list above. Order of screens: WNV NS2B-NS3 inh	MT1-MMP reporter	Hsc70 ATP site
Profile of CN(C)CCOC(=O)CCc1ccccc1 → -2.1	i	-7.7%
Profile of c1ccc2c(c1)C(=Nn1cnnc1)c1ccccc1-2 → -0.36	i	2.4%
Profile of Cc1cc(C)nc(N2C(=O)CC(C(C)c3ccccc3)C2=O)n1 (stereo unspecified) → -0.4	i	6.5%
Profile of Cc1ccc2c(c1)nnn2C1CCN(CC(=O)Nc2ccc3c(c2)OCCO3)CC1 → -0.02	i	0.6%
Profile of O=C1c2[nH]nc(-c3ccccc3O)c2C(c2ccccc2F)N1Cc1ccco1 (stereo unspecified) → 0.29	i	-0.7%

Carrying on:
SMILES,WNV NS2B-NS3 inh,MT1-MMP reporter,Hsc70 ATP site
CC(=O)N1CCC2(CC1)CC(=O)c1cc(OCC(=O)NCc3ccco3)ccc1O2,1.6,i,-3.0%
CS(=O)(=O)N(CC(=O)N1CCN(c2ccccc2)CC1)c1ccccc1Cl,x,i,3.1%
CCNC(=O)CC1C(=O)N(c2ccccc2)C(=O)N1CCC(C)C (stereo unspecified),0.59,i,5.2%
CC(C)C(=O)Nc1cccc(C(=O)Nc2nncs2)c1,0.62,i,-5.6%
CCOc1ccc(S(=O)(=O)n2nc(C)cc2C)c2ccccc12,1,i,-5.6%
CS(=O)(=O)N(CC(=O)NCc1ccco1)c1ccc2c(c1)OCO2,0.19,i,-4.5%
Cc1nnc(NC(=O)CCCN2C(=O)c3ccccc3C2=O)s1,0.63,i,0.5%
CCN(CC)S(=O)(=O)c1ccc(N=Nc2c(C)[nH]n(C(N)=S)c2=O)cc1,x,i,4.5%
COC(=O)c1ccccc1CON1C(=O)C(C)(C)N(OCc2ccccc2C(=O)OC)C(=O)C1(C)C,x,i,-1.1%
CCC(=O)OCCn1c(Br)nc2c1c(=O)[nH]c(=O)n2C,-0.79,i,-6.0%
O=S(=O)(c1ccc(SCCO)nc1)N1CCCC1,2,i,-5.6%
CC(=O)c1cc2c(cc1NC(=O)CCCC(=O)O)OCO2,0.8,i,1.8%
CCC(=O)N1CCN(c2nc(-c3ccccc3)c3c(c2C#N)CCCC3)CC1,-0.82,i,2.6%
Cn1c(NCc2c(O)ccc3ccccc23)nc2ccccc21,x,i,2.1%
CSc1ccc(C(=S)N2CCN(CCO)CC2)cc1,0.84,i,-1.5%
Cc1cc(C)nc(NC2=NCC(=O)N2c2ccc(Cl)cc2)n1,0.16,i,0.6%
CC(=O)Nc1ccc(OC(F)(F)C(F)C(F)(F)F)c(NC(C)=O)c1 (stereo unspecified),-1.1,i,-6.4%
CN(C)CCN1C(=O)C(=O)/C(=C(/O)c2ccc(S(=O)(=O)N3CCOCC3)cc2)C1c1ccccc1 (stereo unspecified),-0.25,i,2.5%
O=C(N1CCOCC1)N1CCN(CC(O)COc2ccc3ccccc3c2)CC1 (stereo unspecified),-0.88,i,-2.9%
CC(NC(=O)Nc1ccc(O)cc1)(C(F)(F)F)C(F)(F)F,0.08,i,-0.1%

smiles	WNV NS2B-NS3 inh	MT1-MMP reporter	Hsc70 ATP site
CCCCn1c(N)c(N(CCC(C)C)C(=O)CSc2nnc3ccccn23)c(=O)[nH]c1=O	-0.55	i	1.0%
CN1C(=O)SC(Nc2ccc(F)cc2)C1=O (stereo unspecified)	-0.57	i	-2.5%
CC12C(=O)N(c3cccc4cccnc34)C(=O)C1C1C=CC2C1 (stereo unspecified)	1.4	i	-2.9%
CCN(CCNC(=O)C1CCN(S(=O)(=O)CC)CC1)c1ccccc1	0.71	i	3.5%
O=C(NC1CC1)C1CCC(=O)N1C1CCCC1 (stereo unspecified)	0.14	i	0.3%
O=C(c1ccco1)n1nc(-c2ccccc2)nc1NCc1ccco1	0.85	i	0.8%
CCCCCCNC(=O)C(C#N)c1nc2ccccc2nc1N1CCOCC1 (stereo unspecified)	-0.69	i	57%
COc1ccc(CCNC(=O)CSc2nc(N)c(C#N)c(-c3cccs3)c2C#N)cc1OC	-0.18	i	-3.2%
CCC(C)Nc1nc2c(c(=O)[nH]c(=O)n2C)n1CCC(C)C (stereo unspecified)	1.1	i	0.7%
CN1CCCN(C(c2ccccc2)c2ccc(Cl)cc2)CC1 (stereo unspecified)	0.19	i	-6.7%
Cc1cccn2cc(-c3ccc(S(=O)(=O)N4CCOCC4)cc3)nc12	1.4	i	-2.7%
CC1(C)NC(=O)N(CC(O)Cn2nnc3ccccc32)C1=O (stereo unspecified)	1.1	i	-2.6%

Already shown: an excerpt of the list.
smiles	WNV NS2B-NS3 inh	MT1-MMP reporter	Hsc70 ATP site
Cc1cccn2cc(-c3ccc(S(=O)(=O)N4CCOCC4)cc3)nc12	1.4	i	-2.7%
CC1(C)NC(=O)N(CC(O)Cn2nnc3ccccc32)C1=O (stereo unspecified)	1.1	i	-2.6%

(further entries)
smiles	WNV NS2B-NS3 inh	MT1-MMP reporter	Hsc70 ATP site
O=C(NCc1ccco1)c1sc2cccc(F)c2c1Cl	-0.41	i	0.9%
Cc1cccc(NC(=O)C2CCCN(S(=O)(=O)c3c(C)nn(C)c3C)C2)n1 (stereo unspecified)	0.32	i	-0.6%
Nn1c(SCC(=O)NC(=O)NCc2ccccc2)nnc1C1CC1	1.8	i	-2.9%
CC(C)CCn1c(Oc2ccccc2Cl)nc2c1c(=O)n(C)c(=O)n2C	x	i	-6.0%
O=C(O)CCC(=O)N1CCc2cc(S(=O)(=O)Nc3ccc4c(c3)OCCO4)ccc21	0.78	i	6.4%
COCCOC(=O)C1=C(C)N=C2SCCC(=O)N2C1c1ccc(C(=O)OC)cc1 (stereo unspecified)	1	i	-0.1%
CCOc1ccc(-c2nnc(-c3ccccc3)o2)cc1	x	i	-2.1%
CCCC(=O)N1CCN(c2ccc(NC(=O)c3cc4ccccc4o3)cc2Cl)CC1	1.2	i	0.8%
COc1cc(CNc2nc3ccccc3[nH]2)cc(OC)c1OC	-1.2	i	-1.9%
O=C1C(=O)N(CCCn2ccnc2)C(c2ccccn2)/C1=C(/O)c1ccccc1 (stereo unspecified)	-0.32	i	-0.7%
O=C(CSc1nnc(C2CCCCC2)o1)N1CCCCC1	-1.1	i	-1.9%
CN1C2C=C3C(C#N)=C(N)C(C#N)(C#N)[C@@H](c4cccs4)C3C1CC2 (stereo partly specified)	1.2	i	2.2%
CCOC(=O)c1c(NC(=O)c2ccnn2C)sc(C)c1C	x	i	-1.3%

High-throughput results as filed in PubChem.
